Rango-impB inh = inhibitors of Rango-importin beta complex formation | Potency, µM (highest dose often 92.2 µM), for inactives: at the highest dose inhibition of complex formation | Rango CFP/YFP FRET sensor + importin beta, 45 min | 0.031% of 340,000 active | Q14974 | AID 540263; active = rising FRET ratio curve, often small or poorly fitted; inconclusive = mostly compound fluorescence or quenching in the first reads; inactive = flat curves in all reads;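 also: potency is read from the fitted curve at half-maximal effect; 0% = DMSO wells and 100% = buffer wells lacking importin beta; nearly all actives have a fitted effect of over 15% in size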
Target sequence (Q14974 whole entry, looked up): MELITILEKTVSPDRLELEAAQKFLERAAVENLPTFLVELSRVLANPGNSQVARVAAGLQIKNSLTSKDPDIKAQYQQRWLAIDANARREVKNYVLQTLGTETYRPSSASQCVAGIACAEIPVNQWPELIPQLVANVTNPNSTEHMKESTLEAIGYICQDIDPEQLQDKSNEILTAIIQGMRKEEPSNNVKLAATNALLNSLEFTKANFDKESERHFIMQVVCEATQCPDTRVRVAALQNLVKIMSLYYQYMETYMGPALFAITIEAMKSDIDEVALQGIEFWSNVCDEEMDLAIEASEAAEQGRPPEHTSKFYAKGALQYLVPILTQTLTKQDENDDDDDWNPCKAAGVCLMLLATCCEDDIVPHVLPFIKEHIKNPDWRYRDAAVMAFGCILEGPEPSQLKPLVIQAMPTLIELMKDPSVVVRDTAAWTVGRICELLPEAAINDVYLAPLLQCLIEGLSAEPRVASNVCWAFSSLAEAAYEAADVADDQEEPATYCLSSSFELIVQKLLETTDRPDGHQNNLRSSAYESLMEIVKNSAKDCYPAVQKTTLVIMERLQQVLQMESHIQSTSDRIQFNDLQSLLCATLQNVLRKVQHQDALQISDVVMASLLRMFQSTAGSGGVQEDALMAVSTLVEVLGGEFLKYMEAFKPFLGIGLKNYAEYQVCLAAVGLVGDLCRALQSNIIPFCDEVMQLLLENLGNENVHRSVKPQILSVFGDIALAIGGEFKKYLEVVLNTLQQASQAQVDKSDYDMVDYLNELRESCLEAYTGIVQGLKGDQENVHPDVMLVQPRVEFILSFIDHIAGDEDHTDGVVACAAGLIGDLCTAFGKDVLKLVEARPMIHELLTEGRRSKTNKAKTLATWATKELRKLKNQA
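FRET biosensor (snurportin 1 IBB flanked by EYFP and cerulean), 50 nM, with compound 5 min, then 0.125 microM importin beta in PBS, 1 mM DTT, 0.02% Tween-20, 0.1% BSA. CFP/YFP ratio read after 45 min at room temperature; pre-read flags interference.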
miR-21 reporter = miR-21 reporter, rising signal; HeLa miR-21 FLuc reporter, luciferase, 48 h; Potency, µM (top dose mostly 38.3 µM), for inactives: at the top dose reporter change, positive = more light; 340,000 tested, under 10 active; AID 2288; active = well fitted rising curve with a large enough effect; inconclusive = small, poorly fitted or top-dose-only effect; inactive = no such curve, though single readings can be large or run the other way;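 also: % of control where 0% means no effect; miR-21 action dims this reporter so a rising signal means less miR-21 action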
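Compounds were titrated across several concentrations (up to approximately 40 uM) and incubated 48 hours with HeLa miR-21-FLuc reporter cells (miR-21 target sequence downstream of FLuc, endogenous miR-21). Readout was firefly luciferase luminescence after lytic detection reagent.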
Rango release inh = inhibition of RanGTP-driven Rango-importin beta dissociation. Biochemical FRET Rango-importin beta, RanGTP-induced dissociation. Potency, µM (highest dose often 46.1 µM), without a hit: at the highest dose activity change, negative = inhibition. 0.071% of 340,000 active. AID 540253; active means falling FRET ratio curve, often poorly fitted, with flat reads before Ran was added; inconclusive means other falling curves, or compound fluorescence or quenching; inactive means flat or rising ratio curve;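 also: potency is read from the fitted curve at half-maximal effect; % of control where 0% means no effect; nearly all actives have a fitted effect of over 45% in size; -100% = wells without RanGTP and RCC1; the record marks most hits as doubtful in a second field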
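Recombinant Rango FRET biosensor (EYFP–snurportin 1 IBB–cerulean CFP10) at 0.1 uM premixed with 0.25 uM importin beta in PBS, 1 mM DTT, 0.02% Tween-20, 0.1% BSA. Compound added 5 min; RanGTP-RCC1 (0.6 uM Ran, 2 mM GTP, 0.2 uM RCC1) then triggers release, read at 45 min.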
GLA inh pH 4.5 = alpha-galactosidase A (human) inhibition, pH 4.5 | 230,000 tested, under 10 active | purified enzyme, 4-MU-alpha-Gal fluorescence, pH 4.5 | activity change, negative = inhibition, % at 105 µM | P06280; inconclusive = small, poorly fitted or top-dose-only inhibition, or a rising curve; inactive = flat fitted curve, though single readings scatter; no compound was filed as active;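 also: 0% = full activity with enzyme and -100% = basal without enzyme; dose as in the result columns while the protocol names 77 µM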
* hit, by the source's call; & = joins results of further samples. These rows are one share of the data. The share of hits here may be higher or lower than overall.

`O=C(CNC(=O)c1ccccc1C(=O)O)c1ccccc1` gave Rango-impB inh -0.3%, miR-21 reporter -49%, Rango release inh 1% and GLA inh pH 4.5 4.
Screening COc1ccc(S(=O)(=O)N2CCOCC2)cc1NC(=O)CSc1ccc(F)cc1 returned Rango-impB inh -6.9% and Rango release inh 25%.
For N#Cc1ccc(C(=O)NC2CCCc3ccccc32)cc1 (stereo unspecified) the results were Rango-impB inh -2.1%, miR-21 reporter -6%, Rango release inh -3% and GLA inh pH 4.5 2.
`COC(=O)c1sc(NC(=O)CSc2nncs2)c(C(=O)OC)c1C` gave Rango-impB inh 1.2%, miR-21 reporter -1%, Rango release inh -6% and GLA inh pH 4.5 1.
Screening Cc1cc(=O)[nH]c(SCC(=O)c2c(N)n(C)c(=O)n(C)c2=O)n1 returned Rango-impB inh 0.3%, miR-21 reporter -7%, Rango release inh 18% and GLA inh pH 4.5 -1.
For CC(NC(=O)c1ccc(Cl)cc1)c1nnc(SCC(=O)NC2=NCCS2)n1C (stereo unspecified) the results were Rango-impB inh 3.8%, miR-21 reporter -1% and Rango release inh 3%.
Screening CC1Cc2ccccc2N1C(=O)CNc1ccccc1N1CCCCC1 (stereo unspecified) returned Rango-impB inh -3.5%, miR-21 reporter 2%, Rango release inh -5% and GLA inh pH 4.5 2.
For NCCCC[C@H](NC(=O)C1CCNCC1)c1nnc([C@@H](N)CO)o1 the results were Rango-impB inh 3.3%, miR-21 reporter 2%, Rango release inh 13% and GLA inh pH 4.5 8.
Screening Cc1ccc(OCCN2C(=O)c3ccccc3C2=O)c([N+](=O)[O-])c1 returned Rango-impB inh -1.4%, miR-21 reporter -38%, Rango release inh -1% and GLA inh pH 4.5 0.
For Cc1cc(C(=O)CSc2nc(N)cc(N)n2)c(C)n1-c1cccc(C(F)(F)F)c1 the results were Rango-impB inh -3.3%, miR-21 reporter 19%, Rango release inh 1% and GLA inh pH 4.5 3.
COc1cccc(OC)c1C(=O)NNC(=O)c1ccc(F)cc1 was read as Rango-impB inh 0.0%, miR-21 reporter -3%, Rango release inh 1% and GLA inh pH 4.5 9.
`Cc1ccc(C)c(NC(=O)c2ccc(N(C)S(C)(=O)=O)cc2)c1` gave Rango-impB inh inconclusive, miR-21 reporter -14%, Rango release inh 1% and GLA inh pH 4.5 1.
For Cc1ccc(CCc2nnc(SCC(=O)Nc3ccccc3Cl)n2-c2ccccc2)o1 the results were Rango-impB inh 1.7%, miR-21 reporter 0%, Rango release inh 11% and GLA inh pH 4.5 -6.
Screening CCS(=O)(=O)c1ccc(-c2csc(-c3ccccc3)n2)c(Cl)c1Cl returned Rango-impB inh -0.9%, miR-21 reporter 1%, Rango release inh 12% and GLA inh pH 4.5 -28.
`C#CCOCCOCCOCCNc1nc(N2CCN(C(=O)C(Cc3ccc(O)cc3)n3cc(C(N)CC(C)C)nn3)CC2)nc(N2CCN(C(=O)C(Cc3cc4ccccc4[nH]3)n3cc(C(N)C(C)CC)nn3)CC2)n1` (stereo unspecified) gave miR-21 reporter 0% and GLA inh pH 4.5 -5.
For O=c1c2[nH]c3cccc(Cl)c3c2ncn1CC1CCCO1 (stereo unspecified) the results were Rango-impB inh 1.7%, miR-21 reporter -34%, Rango release inh 1% and GLA inh pH 4.5 -1.
`COc1cc(S(=O)(=O)N(Cc2cccc(OC)c2OC)CC2CCCO2)ccc1-n1cnnn1` (stereo unspecified) gave Rango-impB inh -2.6%, miR-21 reporter 0%, Rango release inh 14% and GLA inh pH 4.5 5.
For Cc1ccc(C(=O)COC(=O)CNC(=O)Cc2ccccc2)cc1[N+](=O)[O-] the results were Rango-impB inh -0.8%, miR-21 reporter 0%, Rango release inh 8% and GLA inh pH 4.5 6.
Screening O=C(O)CSc1nnc(Cn2c(=O)sc3ccccc32)n1-c1cccc(Cl)c1 returned Rango-impB inh 3.7%, miR-21 reporter -2%, Rango release inh 6% and GLA inh pH 4.5 4.
`COc1cc(COc2ccc(S(=O)(=O)N3CCOCC3)cc2[N+](=O)[O-])ccc1OC(F)F` gave Rango-impB inh inconclusive and Rango release inh -9%.

Random excerpt: four entries already listed, in no set order.
For Cc1cc(C(=O)CSc2nc(N)cc(N)n2)c(C)n1-c1cccc(C(F)(F)F)c1 the results were Rango-impB inh -3.3%, miR-21 reporter 19%, Rango release inh 1% and GLA inh pH 4.5 3.
For Cc1ccc(CCc2nnc(SCC(=O)Nc3ccccc3Cl)n2-c2ccccc2)o1 the results were Rango-impB inh 1.7%, miR-21 reporter 0%, Rango release inh 11% and GLA inh pH 4.5 -6.
`COc1cc(COc2ccc(S(=O)(=O)N3CCOCC3)cc2[N+](=O)[O-])ccc1OC(F)F` gave Rango-impB inh inconclusive and Rango release inh -9%.
For N#Cc1ccc(C(=O)NC2CCCc3ccccc32)cc1 (stereo unspecified) the results were Rango-impB inh -2.1%, miR-21 reporter -6%, Rango release inh -3% and GLA inh pH 4.5 2.

Further records follow.
Screening O=S(=O)(Nc1ccc2cn[nH]c2c1)c1ccc(Cl)s1 returned Rango-impB inh -4.0%, miR-21 reporter -3%, Rango release inh 1% and GLA inh pH 4.5 1.
For CCOC(=O)C1=C(N)OC2=C(C(=O)CCC2)C1c1ccccc1OC (stereo unspecified) the results were Rango-impB inh 4.3%, miR-21 reporter -2%, Rango release inh 2% and GLA inh pH 4.5 4.
`O=C(Nc1ccc(Cl)cc1)c1nc[nH]c1C(=O)NCCN(CCNC(=O)c1[nH]cnc1C(=O)Nc1ccc(Cl)cc1)CCNC(=O)c1[nH]cnc1C(=O)Nc1ccc(Cl)cc1` gave Rango-impB inh -2.2% and Rango release inh 25%.
`Cn1c(N)c(C(=O)CSc2nnc(C3CC3)n2Cc2ccccc2)c(=O)n(C)c1=O` gave Rango-impB inh 0.0% and Rango release inh -4%.
COc1cc(S(=O)(=O)N(CCc2ccccc2)Cc2cccs2)ccc1-n1cnnn1 was read as Rango-impB inh -0.6%, miR-21 reporter 0%, Rango release inh 21% and GLA inh pH 4.5 2.
COc1ccc(CN(CC(=O)NCc2ccccc2)C(=O)c2csnn2)cc1 was read as Rango-impB inh 1.6%, miR-21 reporter 0%, Rango release inh 1% and GLA inh pH 4.5 -4.
`COc1cc(Cl)ccc1OCc1cc(C(=O)N2CCCCCCC2)no1` gave Rango-impB inh 3.6%, miR-21 reporter -23% and Rango release inh 30%.
`O=C(CSc1nc2ccccc2[nH]1)N1CCN(C(=O)c2ccco2)CC1` gave Rango-impB inh -0.4%, miR-21 reporter 0%, Rango release inh -15% and GLA inh pH 4.5 5.
For Cc1ccc(C(=O)Nc2nnc(S(=O)(=O)N3CCCCCC3)s2)cc1 the results were Rango-impB inh 0.2%, miR-21 reporter -27%&-48% and Rango release inh 12%.
Cc1cc(C)n(CC(O)Cn2c3ccccc3c3ccccc32)c(=O)n1 (stereo unspecified) was read as Rango-impB inh 2.9%, miR-21 reporter -10%, Rango release inh -1% and GLA inh pH 4.5 -4.
CSc1cc(-c2ccco2)oc1C(=O)c1ccco1 was read as Rango-impB inh inconclusive and Rango release inh inconclusive.
`Cc1cc(O)c(-c2cc(O)c(C)cc2O)cc1O` gave Rango-impB inh 3.6%, miR-21 reporter inconclusive, Rango release inh 0% and GLA inh pH 4.5 -7.
Screening O=C(O)C1CC(=O)N(CCc2ccc(F)cc2)C1 (stereo unspecified) returned Rango-impB inh 0.2%, miR-21 reporter -5% and Rango release inh 19%.
`CCCCNC(=S)NNC(=O)c1ccoc1C` gave Rango-impB inh -2.7%, miR-21 reporter -20%, Rango release inh -10% and GLA inh pH 4.5 -1.
Screening Cc1nc2ccccc2nc1-c1ccc([N+](=O)[O-])cc1 returned Rango-impB inh 2.0% and Rango release inh 22%.
CC(=O)Nc1ccccc1C(=O)C(=O)Nc1ccc(C(=O)N2CCOCC2)cc1 was read as Rango-impB inh 0.3%, miR-21 reporter -12%, Rango release inh 17% and GLA inh pH 4.5 0.
CC1CCN(C(=O)c2ccc3c(c2)OCO3)CC1 was read as Rango-impB inh 2.3%, miR-21 reporter -13% and Rango release inh 1%.
For Cn1c(N)c(C(=O)COC(=O)Cc2ccc(Cl)cc2Cl)c(=O)n(C)c1=O the results were Rango-impB inh 2.0% and Rango release inh 0%.
`O=C(COc1cccc2ccccc12)N1c2ccccc2CCc2ccccc21` gave Rango-impB inh 1.3%, miR-21 reporter 17%, Rango release inh -4% and GLA inh pH 4.5 -3.
For Cn1cnc2cc(OC(=O)c3ccccc3)ccc21 the results were Rango-impB inh 6.2%, miR-21 reporter -7%, Rango release inh 16% and GLA inh pH 4.5 -4.
Cc1ccc(C(C)CCN2CCC(n3nccc3NC(=O)c3ccccc3)CC2)o1 (stereo unspecified) was read as Rango-impB inh -1.5%, miR-21 reporter -5% and Rango release inh -10%.
Screening Clc1ccc2nncn2n1 returned Rango-impB inh 0.6%, miR-21 reporter -1%, Rango release inh -8% and GLA inh pH 4.5 2.
`COc1ccc(C(CNC(=O)Nc2ccc(Cl)cc2)N2CCN(C)CC2)cc1` (stereo unspecified) gave Rango-impB inh 2.6%, miR-21 reporter -8% and Rango release inh 0%.
`COc1cc(C(=O)Nc2scc(-c3ccccc3)c2C(=O)O)cc(OC)c1OC` gave Rango-impB inh 4.2%, miR-21 reporter 3% and Rango release inh 16%.
`CC1CCCC(NC(=O)COC(=O)CCC(=O)c2ccc(F)cc2)C1C` (stereo unspecified) gave Rango-impB inh -1.1% and Rango release inh -7%.
Screening COc1ccc(CCN(Cc2cc3cc4c(cc3[nH]c2=O)OCO4)C(C)=O)cc1OC returned miR-21 reporter -1% and GLA inh pH 4.5 9.
For Cc1ccc(-n2ncc3c2CCCC3NC(=O)c2cnccn2)cc1C (stereo unspecified) the results were Rango-impB inh -1.7%, miR-21 reporter 2% and Rango release inh 2%.
COc1ccc(CCN(Cc2ccccn2)C(=S)Nc2cccc(SC)c2)cc1OC was read as Rango-impB inh -0.1%, miR-21 reporter 0%, Rango release inh 9% and GLA inh pH 4.5 -5.
Cn1cnc(S(=O)(=O)N2CCN(C(c3ccc(F)cc3)c3ccc(F)cc3)CC2)c1 was read as Rango-impB inh 1.3%, miR-21 reporter 6% and Rango release inh -12%.
For Cc1cc(C)n(-c2ccc(C(=O)OCC(=O)Nc3ccc(S(N)(=O)=O)cc3)cc2)n1 the results were Rango-impB inh 0.2% and Rango release inh 9%.
Screening Nc1ccc(S(=O)(=O)NC2=NCCCCC2)cc1 returned Rango-impB inh 3.1%, miR-21 reporter 0%, Rango release inh 17% and GLA inh pH 4.5 5.
For Cc1cccc(N(CC(=O)NCc2ccco2)C(=O)CCC(=O)Nc2nccs2)c1C the results were Rango-impB inh 1.7%, miR-21 reporter 3% and Rango release inh 1%.
Screening Cc1cc(C)cc(NC(=O)C2CCCN2S(=O)(=O)c2ccc3c(c2)n(C)c(=O)c(=O)n3C)c1 (stereo unspecified) returned Rango-impB inh 0.2%, miR-21 reporter -9% and Rango release inh 2%.
Screening CC1CCc2cc(F)ccc2N1C(=O)CSc1nnc2c(n1)[nH]c1ccc(F)cc12 (stereo unspecified) returned Rango-impB inh -3.3%, miR-21 reporter -3%, Rango release inh 5% and GLA inh pH 4.5 -3.
Cc1cc(=O)n2[nH]c(CCC(=O)O)nc2n1 was read as Rango-impB inh 2.6%, miR-21 reporter -2%, Rango release inh 10% and GLA inh pH 4.5 -10.

As a working copy, some entries already given:
Screening CC1CCc2cc(F)ccc2N1C(=O)CSc1nnc2c(n1)[nH]c1ccc(F)cc12 (stereo unspecified) returned Rango-impB inh -3.3%, miR-21 reporter -3%, Rango release inh 5% and GLA inh pH 4.5 -3.
Cc1cc(=O)n2[nH]c(CCC(=O)O)nc2n1 was read as Rango-impB inh 2.6%, miR-21 reporter -2%, Rango release inh 10% and GLA inh pH 4.5 -10.
